Bioassay records: PubChem BioAssay, National Center for Advancing Translational Sciences (NCATS)
ClpP mod: qHTS Assay for Activators of ClpP. purified B. subtilis ClpP, FRET peptide cleavage, 20 min. 340,000 tested, 1.9% active. ATP-dependent Clp protease proteolytic subunit (Bacillus subtilis (strain 168)), P80244. Potency, µM (top dose mostly 57.5 µM), inactives show at the top dose activity change, negative = active; active = well fitted falling curve with a large enough effect; inconclusive = small, poorly fitted or top-dose-only effect; inactive = no such curve, though single readings can be large or run the other way; also: potency is read from the fitted curve at half-maximal effect; the source files actives as falling curves though it sought activators and does not explain the sign; nearly all actives have a fitted effect of over 65% in size; many hits overshoot -100%
Target sequence (P80244 whole entry, looked up): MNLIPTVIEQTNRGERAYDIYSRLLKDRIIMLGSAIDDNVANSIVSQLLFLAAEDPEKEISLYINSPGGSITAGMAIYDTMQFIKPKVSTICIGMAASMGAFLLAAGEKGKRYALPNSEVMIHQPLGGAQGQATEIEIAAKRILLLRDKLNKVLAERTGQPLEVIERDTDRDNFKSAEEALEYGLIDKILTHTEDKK
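ClpP 10 microg/mL final, pH 8 Tris/KCl buffer with BSA, glycerol, Tween-20; compound pinned in; FRET-FV substrate; RT 20 min; Ex320/Em430; ΔFRET vs ADEP 5.8 microM, DMSO, no enzyme.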
PINK1 expr mod: changes PINK1 expression | 410,000 tested, 0.2% active | Potency, µM (titrated, usually from 76.6 µM), inactives show at the highest dose activation (PINK1 increase), hits mostly activators | PINK1 immunofluorescence, high-content cytometry, 24 h; active = well fitted activation curve with a large enough effect; inconclusive = small, poorly fitted or top-dose-only effect; inactive = flat fitted curve, though single readings scatter; cell line not stated here;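 also: potency is read from the fitted curve at half-maximal effect; % of control where 0% means no effect; nearly all actives have a fitted effect of over 65% in size; a mitochondrial uncoupler was the plate control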
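A stable cell line was treated with compounds at 5 concentrations for 24 hours, with CCCP as control. PINK1 levels and mitochondrial localization were measured by immunofluorescence with mitochondrial, cell and nuclear markers after fixation, read by laser-scanning cytometry.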
gsp ag: activates gsp, the McCune-Albright syndrome mutation | 340,000 tested, 0.13% active | Potency, µM (doses to about 76.9 µM), for the others: at the highest dose activation (cAMP increase), actives largely listed as activators | gsp mutant cells, cAMP HTRF, 30 min; control for the full effect not named in the record; active = well fitted activation curve with a large enough effect; inconclusive = small, poorly fitted or top-dose-only effect, or another doubt; inactive = no such curve, though single readings can be large or run the other way; cell line not stated here;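 also: phosphodiesterase inhibitor Ro 20-1724 added with compounds to block cAMP breakdown; potency is read from the fitted curve at half-maximal effect; nearly all actives have a fitted effect of over 60% in size; about a fifth of the inactives were tested at one dose only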
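Cells in DMEM/10% FBS with G418 were pretreated with compounds in DMSO plus […] (300 uM stock) for 30 min at 37C. cAMP was measured by HTRF (cAMP-d2 plus anti-cAMP antibody-K) after 30 min at room temperature.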
D2 ag: agonists of human D2 dopamine receptor (beta-arrestin); P14416; DiscoveRx PathHunter D2 beta-arrestin, luminescence, 90 min; 100% = 57 uM dopamine signal; activation, % (no concentration beside the values); 360,000 tested, 0.084% active; AID 624465; in the data active = activation above about 40%; inconclusive = about 15% to 40%; inactive = below about 15%; also: compound concentration not given in the record; the text of the record calls up to 30% inactive
Target sequence (P14416 whole entry, looked up): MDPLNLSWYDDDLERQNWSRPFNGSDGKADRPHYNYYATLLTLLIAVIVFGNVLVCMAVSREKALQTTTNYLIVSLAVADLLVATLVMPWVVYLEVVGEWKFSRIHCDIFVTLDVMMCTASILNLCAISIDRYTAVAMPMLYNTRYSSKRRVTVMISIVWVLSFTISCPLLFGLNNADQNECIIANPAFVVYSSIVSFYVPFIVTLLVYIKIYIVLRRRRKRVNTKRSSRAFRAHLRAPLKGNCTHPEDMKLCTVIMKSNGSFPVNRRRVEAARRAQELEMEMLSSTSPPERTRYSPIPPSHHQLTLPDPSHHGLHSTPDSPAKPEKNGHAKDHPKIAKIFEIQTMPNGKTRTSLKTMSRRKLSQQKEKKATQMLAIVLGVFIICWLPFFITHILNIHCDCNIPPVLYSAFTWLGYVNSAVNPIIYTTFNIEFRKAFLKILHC
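DiscoveRx PathHunter D2 beta-arrestin cells (2,100/well) attached overnight, then compound-stimulated 90 min at 37 C in HBSS/10 mM HEPES/0.1% Tween-20 buffer; beta-galactosidase complementation read by luminescence after 1 h at ambient temperature. Dopamine 57 uM final (EC100) as control.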
Menin MLL FP FL: displaces fluorescein MLL peptide from human menin | Fluorescence polarization, fluorescein-MLL peptide displacement from menin | FP activity change, % at 61.4 µM | 290,000 tested, under 10 active | AID 1766; inconclusive = falling polarisation curve, or a change in total fluorescence; inactive = total fluorescence flat and polarisation flat or rising; no compound was filed as active; the % refers to the polarisation; negative = inhibition;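 also: % of control where 0% means no effect; inhibitors lower the polarisation; unlabelled MLL peptide was the positive control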
gsp antagonist: gsp mutant antagonism; Potency, µM (series often up to 76.9 µM), inactives show at the highest dose activity change, negative = inhibition, actives largely listed as inhibitors; 340,000 tested, 0.4% active; gsp-mutant cells, cAMP HTRF, 30 min; control for the full effect not named in the record; AID 624288; active = falling curve of any shape with a large fitted effect; inconclusive = falling curve, mostly with a smaller effect; inactive = flat or rising curve; cell line not stated here;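 also: intracellular cAMP measured with PDE inhibitor Ro 20-1724 present during compound exposure; potency is read from the fitted curve at half-maximal effect; % is scaled to controls: 0 for no effect and ±100 for the full control effect; nearly all actives have a fitted effect of over 65% in size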
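Measurement of cellular cAMP by homogeneous time-resolved fluorescence following a 30 min compound exposure at 37C. The PDE inhibitor […] was present throughout; the assay buffer was DPBS with 0.05% BSA and 0.005% Tween 20.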
Sfp PPTase inh: blocks B. subtilis Sfp PPTase activity; Biochemical Sfp PPTase activity, qHTS; 310,000 tested, 3.5% active; Potency, µM, for inactives: max response, negative = inhibition, most hits filed as inhibitors; active = well fitted inhibition curve with a large enough effect; inconclusive = small, poorly fitted or top-dose-only effect, or another doubt; inactive = no such curve, though single readings can be large or run the other way;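 also: the enzyme is Sfp with the accession as filed and its product quenches rhodamine fluorescence; potency is read from the fitted curve at half-maximal effect; 0% = enzyme reaction without inhibitor and -100% = no enzyme wells; top concentration of the series not given in the record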
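Buffer: 50 mM Hepes-Na pH 7.6, 10 mM MgCl2, 0.01% Nonidet P-40, 0.01% BSA. Enzyme 15 nM, pre-exposed to compound 15 min; substrates then added and fluorescence change tracked over 30 min.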
An asterisk follows results filed as active; ? = inconclusive; . = no result given; & = joins results of further samples; [ ] = another dose, or the depositor's remark.

#1 O=C(CC1C(=O)NCCN1Cc1c(F)cccc1Cl)NCCc1ccccn1 (centres undefined)
#2 CC(C)(C)C(=O)Nc1cc(C(F)(F)F)ccc1-n1ccnc1
#3 O=S(=O)(c1ccc2ccccc2c1)N(CC1CO1)c1ccccc1 (centres undefined)
#4 CCOC(=O)N1CCC(NC(=O)CN2C(=O)CSc3ncccc32)CC1
#5 CC(NC(=O)c1cccnc1)c1ccc2c(c1)OCO2 (centres undefined)
#6 COc1ccc(NC(=O)Nc2cc(C)ccn2)cc1
#7 CCCc1cc(C(N)=O)c(NC(=O)c2ccco2)s1
#8 O=C(COc1ccccc1)NCc1ccc2c(c1)OCO2
#9 C[C@H]1CN([C@@H](C)CO)C(=O)Cc2cc(NC(=O)Cn3cnnn3)ccc2O[C@H]1CN(C)Cc1ccncc1
#10 CCn1cc(CN2CCCC(C(=O)Nc3ccc(-c4nc5ccccc5[nH]4)cc3)C2)c(C)n1 (centres undefined)

assay / compound	1	2	3	4	5	6	7	8	9	10
ClpP mod	-0.8%	.	.	-0.3%	-1.1%	-1.3%&-1.6%	-21%	1.7%	-2.3%	3.6%
PINK1 expr mod	0.6%	-0.7%	2.5%	1.1%	3.2%[38.3 µM]	0.7%	0.2%	-4.5%[38.3 µM]	0.7%	0.5%
gsp ag	-18%	0%	?	-6%	-32%[inhibitor]	-25%	0%	5%	.	-49%[inhibitor]
D2 ag	2.2	-7.3	1.6	-4.2	1.1	-2.1	0.1	-1.5	-0.7	1.3
Menin MLL FP FL	-2.5	1.1	1.4	1.1	4.1	.	5.2	-0.8	.	.
gsp antagonist	5%	10%	0%	3%	6%	4%	8%	15%	8%	3%
Sfp PPTase inh	?	23%	-18%	12%	16%	.	?	18%	.	18%

#11 COCCn1c(=NC(C)=O)sc2cc([N+](=O)[O-])ccc21
#12 Cc1ccc(NC(=O)C2(c3ccccc3)CCCC2)nc1
#13 COc1ccc(S(=O)(=O)Cc2ccc(C(=O)NC3CC3)o2)cc1
#14 COc1cc(/C=N/NC(=O)Cc2ccc(Br)cc2)cc(OC)c1O
#15 CC(C)Oc1ccc(C(=O)N2CCC(CCC(=O)NC3CC3)CC2)cc1
#16 Cn1cccc1C(=O)N1CCC2(CC1)CN(C(=O)Nc1cccc(C#N)c1)C2
#17 CC(=O)C1=C(C)NC(SCC(N)=O)=C(C#N)C1c1cccs1 (centres undefined)
#18 COc1ccc(C(C#N)N2N=C(C)CC2(C)C)cc1OC (centres undefined)
#19 CC(C)(C)OC(=O)C[C@H]1C/C=C\C[C@H](CC(=O)N(CCO)Cc2ccccc2)C(=O)N2CCC[C@H]2COC1=O
#20 Cc1nc(CN(C)C(=O)c2cc(COc3c(F)cccc3F)on2)cs1

assay / compound	11	12	13	14	15	16	17	18	19	20
ClpP mod	0.3%	0.0%	-1.9%	.	-3.7%	.	-1.6%	-1.7%	0.0%	.
PINK1 expr mod	-0.4%	-1.4%	-1.1%	13%	1.2%	0.1%	-0.9%[38.3 µM]	1.1%	-0.1%	-1.1%
gsp ag	-9%	0%	4%	-2%[15.4 µM]	-3%	.	?	-3%	.	-12%[15.4 µM]
D2 ag	-3.4	-1.0	-0.2	4.3	-1.8	.	-0.1	-2.3	3.6	-1.9
Menin MLL FP FL	3.9	.	-0.2	-3.5	.	4.6	1.7	-0.6	.	?
gsp antagonist	7%	-18%	8%	15%	.	.	4%	-6%	-4%	17%
Sfp PPTase inh	-2%	.	23%	-5%	.	15%	-25%	15%	.	14%

#21 Cc1ccc(-n2c(Cc3cccn3C)nnc2SCC(=O)N2CCc3ccccc32)cc1
#22 COc1ccc([C@H]2[C@H]3C=CC[C@@H](C)[C@@H]3C(=O)N2Cc2ccccc2)cc1Cl
#23 Cc1nc(C(F)(F)F)ccc1C(=O)Nc1ccc2ccccc2n1
#24 Cc1cccc(NC(=O)CCc2nc3sc4c(c3c(=O)[nH]2)CCCC4)c1
#25 CC(=O)N1CCCc2cc(S(=O)(=O)N3CCCC3)ccc21
#26 CCCCCCN1C[C@H](O)[C@@H](n2cc(COC(=O)c3ccccc3)nn2)C[C@@H]1c1ccc(C)cc1
#27 COc1ccc(CNC(=O)c2cc3c(=O)[nH]c4ccccc4c3n2C)cc1
#28 C=CCn1cc(C(=O)N2CCN(C)CC2)c(=O)c2cc(S(=O)(=O)N(CC)CC)ccc21
#29 Brc1ccc2nc(-c3cccs3)c(NCC3CCCO3)n2c1 (centres undefined)
#30 O=C(N=Nc1c(O)[nH]c2ccccc12)c1ccc(CN2CCOCC2)cc1

assay / compound	21	22	23	24	25	26	27	28	29	30
ClpP mod	7.4%	-0.9%	-4.0%	-0.8%	-0.6%	-8.7%	-22%	.	-0.1%	.
PINK1 expr mod	2.8%[38.3 µM]	4.9%	-0.1%	18%	-0.4%	?	-1.0%	1.8%	-0.5%	-1.4%
gsp ag	-14%	.	16%	5%	-6%	-47%[inhibitor]	?	0%	-13%	-8%
D2 ag	0.6	-3.8	5.3	-8.8	0.3	-3.9	-18	-1.1	2.7	2.0
Menin MLL FP FL	1.0	-2.1	-6.0	.	6.4	.	-3.9	3.4	-0.8	0.6
gsp antagonist	-11%	-6%	-8%	-18%	10%	.	16%	9%	-30%	-16%
Sfp PPTase inh	-14%	?	14%	.	14%	.	12%	16%	-29%	4%

Six entries picked at random from those above:
#28 C=CCn1cc(C(=O)N2CCN(C)CC2)c(=O)c2cc(S(=O)(=O)N(CC)CC)ccc21
#30 O=C(N=Nc1c(O)[nH]c2ccccc12)c1ccc(CN2CCOCC2)cc1
#21 Cc1ccc(-n2c(Cc3cccn3C)nnc2SCC(=O)N2CCc3ccccc32)cc1
#22 COc1ccc([C@H]2[C@H]3C=CC[C@@H](C)[C@@H]3C(=O)N2Cc2ccccc2)cc1Cl
#23 Cc1nc(C(F)(F)F)ccc1C(=O)Nc1ccc2ccccc2n1
#29 Brc1ccc2nc(-c3cccs3)c(NCC3CCCO3)n2c1 (centres undefined)

assay / compound	28	30	21	22	23	29
ClpP mod	.	.	7.4%	-0.9%	-4.0%	-0.1%
PINK1 expr mod	1.8%	-1.4%	2.8%[38.3 µM]	4.9%	-0.1%	-0.5%
gsp ag	0%	-8%	-14%	.	16%	-13%
D2 ag	-1.1	2.0	0.6	-3.8	5.3	2.7
Menin MLL FP FL	3.4	0.6	1.0	-2.1	-6.0	-0.8
gsp antagonist	9%	-16%	-11%	-6%	-8%	-30%
Sfp PPTase inh	16%	4%	-14%	?	14%	-29%

Additional structures
#31 O=C(NC(=S)Nc1cccc2cccnc12)c1cccs1
#32 CON(C)c1nc(OCCNC(=O)OCc2ccc(Cl)cc2Cl)nc(N(C)C)n1
#33 O=C(O)C1CCCCC1C(=O)NCc1cn2ccccc2n1 (centres undefined)
#34 Nc1c(C(=O)Nc2ccc(S(=O)(=O)N3CCCC3)cc2)sc2nc3ccc(OC(F)(F)F)cc3cc12
#35 CSCC[C@H](NC(=O)COc1ccc(Cl)cc1)c1nc2ccccc2[nH]1
#36 COc1ccc(NC(=O)CN2C(=O)NC3(CCCC3)C2=O)cc1S(=O)(=O)N1CCCCC1
#37 Cc1cc2nc(C)n3c4ccccc4nc3n2n1
#38 CN(C)/C=N/C(=S)Nc1ccccc1
#39 C=CCSC1=N/C(=C\c2sccc2C)C(=O)S1
#40 CC(C(=O)O)(C1CCCCC1)C1(O)CCCCC1 (centres undefined)

assay / compound	31	32	33	34	35	36	37	38	39	40
ClpP mod	3.7%	3.5%	4.5%	?	.	-1.7%	-1.6%	.	-0.7%	1.0%
PINK1 expr mod	2.4%	-0.9%	0.3%	?	0.8%	2.0%	-1.0%	3.1%	9.1%[38.3 µM]	-0.8%
gsp ag	-14%	14%	21%	30%	4%[15.4 µM]	?	0%	0%[15.4 µM]	-55%[inhibitor]	.
D2 ag	4.6	-2.3	4.7	-3.2	-7.6	-0.2	-1.1	1.2	0.8	-0.8
Menin MLL FP FL	-0.5	-3.1	3.0	?	4.6	.	1.4	-6.5	-4.0	.
gsp antagonist	-20%	5%	11%	9%	7.9µM*	0%	8%	-10%	?	.
Sfp PPTase inh	16%	17%	16%	0%	8%	.	11%	8%	-55%	.

#41 CC1CCCN(C(=O)c2ccc(S(=O)(=O)Nc3ccccc3Cl)cc2)C1 (centres undefined)
#42 OC(Cn1ccnc1)c1ccc(Cl)cc1Cl (centres undefined)
#43 CC(C)C(NC(=O)COc1ccc2ccccc2c1)C(=O)N/N=C/C=C/c1ccccc1 (centres undefined)
#44 COc1cccc(CN(C(=O)c2ccco2)C2CCS(=O)(=O)C2)c1 (centres undefined)
#45 COc1ccccc1NS(=O)(=O)c1cccc(C(=O)NNC(=O)c2ccc(O)c(Cl)c2)c1
#46 COC(=O)c1ccc(NC(=S)N(Cc2cccnc2)Cc2ccco2)cc1
#47 Cc1cc(Nc2ccc(N3CCC(C)CC3)cc2)n2ncnc2n1
#48 Cc1cc(N2CCOCC2)nc(C(C)C)n1

assay / compound	41	42	43	44	45	46	47	48
ClpP mod	-21%	-2.2%	-1.5%	-3.0%	-1.3%	-1.1%	-0.4%	0.2%
PINK1 expr mod	2.4%	-0.1%	25%[38.3 µM]	0.1%	-0.7%	0.3%	-2.3%[38.3 µM]	-0.4%
gsp ag	-1%[15.4 µM]	-22%	14%	0%	22%[15.4 µM]	-6%	-4%	-11%[15.4 µM]
D2 ag	4.7	2.5	-2.8	6.1	-5.4	7.3	3.9	-3.4
Menin MLL FP FL	.	2.6	-0.9	.	.	4.1	4.6	2.9
gsp antagonist	-12%	5%	1%	5%	-7%	-8%	2%	14%
Sfp PPTase inh	-5%	14%	7%	3%	.	-8%	-5%	9%
